Ecoli rRNA inh – inhibits bacterial ribosomal RNA function over humanized ribosomes; E. coli WT GFP vs humanized-ribosome RFP mutants, fluorescence, 24 h; stronger effect = lower value; DMSO median 0, no signal -100; 1.6% of 350,000 active; AID 720706; GFP signal change (wild-type ribosome), % (no concentration beside the values);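 active = significant combined selectivity score with lowered wild-type GFP, culture density cut under 30%, mutant RFP and density less affected; inactive = any of these conditions unmet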; note: one replicate is shown; some compounds called inactive have numbers as strong as hits
MLL AF4-AF9 inh – blocks AF4 peptide binding to human AF9; AlphaScreen, biotin-AF4 peptide binding to FLAG-AF9; inhibition, % at 10 µM; 0.47% of 350,000 active; P42568;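 active = every replicate reaching a set inhibition limit, whatever the replicate mean, cut at about 25% in these data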;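 note: 0% = plate neutral control median and 100% = total signal loss; the record names both 10 and 1 µM as test concentration; the first replicate is given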
Target sequence (P42568 whole entry, looked up): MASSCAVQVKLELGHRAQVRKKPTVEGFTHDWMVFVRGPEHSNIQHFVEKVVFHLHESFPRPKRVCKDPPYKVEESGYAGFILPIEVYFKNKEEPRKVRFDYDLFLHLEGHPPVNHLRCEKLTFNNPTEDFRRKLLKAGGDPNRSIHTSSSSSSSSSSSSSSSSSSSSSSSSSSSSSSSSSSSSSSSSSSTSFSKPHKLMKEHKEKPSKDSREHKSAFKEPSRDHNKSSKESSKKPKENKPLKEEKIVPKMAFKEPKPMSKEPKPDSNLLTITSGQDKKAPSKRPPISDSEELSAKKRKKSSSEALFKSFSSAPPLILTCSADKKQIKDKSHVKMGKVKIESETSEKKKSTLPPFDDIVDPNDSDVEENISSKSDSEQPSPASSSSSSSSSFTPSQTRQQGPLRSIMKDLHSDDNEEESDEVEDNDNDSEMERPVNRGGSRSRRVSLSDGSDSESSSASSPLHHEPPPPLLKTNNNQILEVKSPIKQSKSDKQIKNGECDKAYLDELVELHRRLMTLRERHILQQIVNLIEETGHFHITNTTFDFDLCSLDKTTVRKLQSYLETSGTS
Ecoli rRNA inh OD600 – further read-out of Ecoli rRNA inh, marked with its call; OD600 change, %; measured here: OD600 growth;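 optical density of the mix in the first replicate; 0 = DMSO median and -100 = no signal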
Ecoli rRNA inh RFP – also measured in Ecoli rRNA inh; calls as there; RFP signal change, %; measured here: RFP humanized mutant strains;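 first replicate; 0 = DMSO median and -100 = no signal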
The depositor's hits bear a star.

SMILES | Ecoli rRNA inh | Ecoli rRNA inh OD600 | Ecoli rRNA inh RFP | MLL AF4-AF9 inh
C[C@@H]1CN([C@@H](C)CO)C(=O)Cc2cc(NS(=O)(=O)c3cccs3)ccc2O[C@@H]1CN(C)S(=O)(=O)c1ccccc1 | -5 | -3 | 0.6 | 0.3
COc1cccc(NC(=O)N(C)C[C@@H]2Oc3cc(C#CC4(O)CCCC4)ccc3S(=O)(=O)N([C@H](C)CO)C[C@H]2C)c1 | 1 | -2 | 2.1 | -0.3
COC(=O)C[C@@H]1C[C@H]2c3cc(NC(=O)NC4CCCCC4)ccc3O[C@H]2[C@@H](CO)O1 | 2 | 1 | 0.4 | -2.2
Cc1ccc(S(=O)(=O)N(C)C[C@@H]2Oc3ncc(-c4ccccc4)cc3C(=O)N([C@@H](C)CO)C[C@@H]2C)cc1 | -6 | -10 | 3.7 | -11
CC(C)NC(=O)N(C)C[C@@H]1Oc2c(NS(C)(=O)=O)cccc2C(=O)N([C@@H](C)CO)C[C@H]1C | -1 | 0 | -3.2 | -11
COc1cccc(-c2ccc([C@@H]3[C@@H](CO)N4C(=O)CN(C(=O)C5CCCC5)C[C@H]34)cc2)c1 | 4 | -2 | 3.1 | -0.1
Cc1noc(C)c1NC(=O)Nc1cccc2c1O[C@@H](CN(C)Cc1ccc(C(=O)Nc3ccccc3N)cc1)[C@H](C)CN([C@@H](C)CO)C2=O | -9 | -7 | 2.4 | 1.7
C[C@@H]1CN([C@H](C)CO)C(=O)Cc2cc(NC(=O)Nc3ccc(F)cc3)ccc2O[C@@H]1CN(C)CC1CC1 | 0 | -1 | 0.6 | 1.1
CC(C)NC(=O)Nc1ccc2c(c1)CC(=O)N([C@@H](C)CO)C[C@@H](C)[C@H](CN(C)C(=O)NC1CCCCC1)O2 | 2 | 3 | -0.8 | -1.1
CCCNC(=O)C[C@H]1CC[C@H]2[C@H](COc3ccc(NC(=O)c4ccc5c(c4)OCO5)cc3C(=O)N2C)O1 | 1 | 0 | 1.3 | -2.2
C[C@H](CO)N1C[C@H](C)[C@H](CN(C)CC2CC2)Oc2ccc(NS(C)(=O)=O)cc2C1=O | 4 | 3 | -1.1 | -2.5
O=c1c2ccccc2sn1-c1ccc(Cl)cc1Cl | -23 | -42 | -14 | -10
C[C@@H]1CN([C@@H](C)CO)C(=O)Cc2cc(NC(=O)C3CCCCC3)ccc2O[C@@H]1CN(C)S(=O)(=O)c1ccc(Cl)cc1 | -2 | 4 | -0.7 | 0.2
COc1cccc(C(=O)Nc2ccc3c(c2)C(=O)N(C)[C@H]2CC[C@@H](CC(=O)N[C@H](C)c4ccccc4)O[C@@H]2CO3)c1 | 1 | -1 | 1.6 | -1.6
CNC[C@H]1Oc2cc(C#C[C@H](C)O)ccc2S(=O)(=O)N([C@H](C)CO)C[C@@H]1C | 5 | 7 | -2.7 | -2.8
CN(C)CC#Cc1ccc([C@H]2[C@H](CO)N3C(=O)CN(C(=O)c4cccnc4)C[C@@H]23)cc1 | -4 | 0 | -1.0 | -2.5
O=C(Nc1cccc(OC(F)(F)F)c1)C1Cc2c(-c3ccc(Cl)cc3)ccnc2O1 (configuration not stated) | 9 | 14 | 0.5 | -0.5
COc1ccccc1CNC(=O)C[C@H]1C[C@@H]2c3cc(NC(=O)Nc4ccccc4F)ccc3O[C@@H]2[C@@H](CO)O1 | -1 | -7 | 1.7 | 0.2
Cc1cc(C(=O)Nc2cccc3c2O[C@H](CN(C)S(=O)(=O)c2cn(C)cn2)[C@H](C)CN([C@@H](C)CO)C3=O)n(C)n1 | -1 | -5 | 3.1 | -3.2
Cc1noc(C)c1NC(=O)Nc1ccc2c(c1)C(=O)N([C@H](C)CO)C[C@H](C)[C@H](CN(C)C(=O)Nc1ccc(C(F)(F)F)cc1)O2 | -21 | -26 | 3.5 | 2.1
C/C=C/c1cnc2c(c1)C(=O)N([C@@H](C)CO)C[C@H](C)[C@@H](CN(C)C(=O)C1CCCCC1)O2 | 5 | 18 | -1.2 | 6.3
CCCC#Cc1ccc([C@@H]2[C@H]3CN(CC4CCOCC4)CCCCN3[C@H]2CO)cc1 | 5 | 4 | -1.4 | 5.4
CC(=O)N1C[C@H]2[C@@H](c3ccccc31)[C@H](CO)N2C(=O)CC1CC1 | 6 | 2 | -2.6 | -18
Cc1ccc(S(=O)(=O)Nc2ccc3c(c2)CC(=O)N([C@@H](C)CO)C[C@H](C)[C@H](CN(C)C(=O)Nc2c(C)noc2C)O3)cc1 | 5 | 4 | 0.0 | -1.4
O=C(CN1CCOCC1)NCC[C@H]1CC[C@@H](NS(=O)(=O)c2ccc(F)cc2)[C@H](CO)O1 | 1 | 5 | -2.0 | 0.1
COCC(=O)N(C)C[C@@H]1Oc2ncc(C3=CCCCC3)cc2C(=O)N([C@H](C)CO)C[C@@H]1C | 1 | 4 | -0.2 | -3.4
C[C@@H]1CN([C@@H](C)CO)C(=O)c2cc(-c3ccccc3)cnc2O[C@H]1CN(C)C(=O)Nc1ccccc1 | 0 | 0 | -1.4 | -1.6
COc1ccccc1NC(=O)N1CC(=O)N2[C@H](CO)[C@H](c3ccc(C#CC(C)C)cc3)[C@@H]2C1 | 0 | 4 | 0.6 | -1.4
C[C@H]1CN([C@@H](C)CO)C(=O)c2cc(NC(=O)Nc3ccc(F)cc3)ccc2O[C@@H]1CN(C)Cc1ccc(-c2ccccc2)cc1 | -2 | 0 | 0.5 | 2.2
C[C@@H]1CN([C@@H](C)CO)C(=O)c2cc(-c3ccccc3)cnc2O[C@H]1CN(C)Cc1ccccc1 | 1 | 1 | 1.9 | 1.2
CNC[C@H]1Oc2ccc(NC(=O)Cc3cn(C)c4ccccc34)cc2C(=O)N([C@H](C)CO)C[C@@H]1C | -2 | 5 | -6.1 | 2.2
C[C@H](CO)N1C[C@H](C)[C@@H](CN(C)Cc2ccc(-c3ccccc3)cc2)Oc2ccc(NC(=O)C3CC3)cc2C1=O | -3 | 3 | 6.1 | 4.3
CC(C)NC(=O)N(C)C[C@@H]1Oc2c(NC(=O)Nc3ccc(C(F)(F)F)cc3)cccc2C(=O)N([C@H](C)CO)C[C@@H]1C | 1 | -2 | 0.7 | 1.1
C[C@H](CO)N1C[C@H](C)[C@@H](CN(C)CC2CC2)Oc2cc(C#CC3(O)CCCC3)ccc2S1(=O)=O | -3 | -4 | 1.6 | 1.4
CO[C@H]1CN(C)C(=O)c2ccc(NC(=O)C3CCCC3)cc2OC[C@H](C)N(CC2CC2)C[C@H]1C | 2 | -6 | -5.2 | -0.2
COCC(=O)N1C[C@@H]2[C@H](c3ccccc31)[C@@H](CO)N2C(=O)c1ccncc1 | 3 | 6 | 1.1 | -2.5
COc1ccc(-c2cnc3c(NC(C)=O)cc(-c4cccc(NS(C)(=O)=O)c4)cn23)cc1OC | -5 | 12 | 4.8 | 0.9
O=C(Nc1ccccc1)N1CCCCN2[C@H](C1)[C@@H](c1ccc(C#CC3CC3)cc1)[C@@H]2CO | -57 | -73 | -6.0 | 1.3
N#C[C@@H]1[C@@H](c2ccccc2-c2ccccc2F)[C@@H](CO)N1C(=O)C1CCOCC1 | 2 | 5 | -4.5 | 0.5
C[C@H]1CCCCO[C@H](CN(C)S(=O)(=O)c2ccccc2)[C@@H](C)CN([C@@H](C)CO)C(=O)c2cc(N(C)C)ccc2O1 | -5 | -6 | -0.1 | 12
CN(C)CC(=O)Nc1ccc2c(c1)[C@@H]1C[C@H](CC(=O)N3CCCCC3)O[C@H](CO)[C@@H]1O2 | 2 | 6 | -1.1 | -1.3
C[C@H]1CN([C@@H](C)CO)C(=O)Cc2cc(NC(=O)c3ccncc3)ccc2O[C@H]1CN(C)S(=O)(=O)c1ccc(Cl)cc1 | 1 | 9 | 1.3 | -0.3
O=C(C[C@H]1CC[C@H]2[C@@H](COC[C@H](O)CN2C(=O)Nc2ccc(C(F)(F)F)cc2)O1)NCCc1ccncc1 | -60 | -80 | -18 | 1.5
Cc1cc(NC(=O)c2csc([C@@H]3O[C@H](CO)[C@H](O)[C@H](O)[C@H]3O)n2)n(C)n1 | 14 | 34 | -2.0 | 0.6
Cc1noc(C)c1NC(=O)N(C)C[C@H]1Oc2ccc(NC(=O)c3ccncc3)cc2CC(=O)N([C@H](C)CO)C[C@@H]1C | 1 | 2 | -0.5 | 0.3
O=C(C1CCCC1)N1CC(=O)N2[C@H](CO)[C@@H](c3ccc(Br)cc3)[C@@H]2C1 | -1 | 8 | 0.2 | -4.2
Cc1ccc(NC(=O)OCCN(C)C(=O)Nc2ccc(C)cc2C)c(C)c1 | 2 | -3 | 0.0 | 0.2
C[C@@H]1CN([C@@H](C)CO)C(=O)c2c(c3ccccc3n2C)-c2ccccc2CO[C@@H]1CN(C)C(=O)c1cc(Cl)cc(Cl)c1 | 1 | -3 | 0.2 | 3.8
COc1ccc(S(=O)(=O)N(C)C[C@@H]2Oc3ccc(NC(=O)CCC(F)(F)F)cc3CC(=O)N([C@@H](C)CO)C[C@H]2C)cc1 | -5 | -1 | 0.7 | -1.7
O=C(NC[C@H]1N[C@H](CO)[C@H]1c1ccccc1)c1ccccc1F | -3 | -5 | -1.8 | -2.9
C[C@H](CO)N1C[C@H](C)[C@@H](CN(C)C(=O)Nc2cccc3ccccc23)Oc2ccc(NC(=O)Cn3cnnn3)cc2C1=O | 3 | 10 | 1.0 | -4.3
COc1ccccc1S(=O)(=O)N[C@@H]1C=C[C@@H](CC(=O)N2CCOCC2)O[C@H]1CO | -1 | 4 | -1.0 | -4.8
C[C@@H]1CN([C@@H](C)CO)S(=O)(=O)c2ccc(C#CC3CCCC3)cc2O[C@H]1CN(C)S(C)(=O)=O | -11 | -45 | 14 | 5.4
O=C(Nc1ccccc1)N1CC(=O)N2[C@@H](CO)[C@H](c3ccc(C#CC4CCCC4)cc3)[C@@H]2C1 | -15 | -40 | 21 | 7.6
CCC(=O)N(C)C[C@@H]1Oc2ncc(C#C[C@@H](C)O)cc2C(=O)N([C@@H](C)CO)C[C@@H]1C | 5 | 6 | -5.6 | -4.7
CS(=O)(=O)N1Cc2cc(C(=O)NCC3CC3)nc(-c3cccc(-c4cccnc4)c3)c2[C@H]1CCO | 17 | 18 | 6.6 | 2.6
COc1ccc(S(=O)(=O)N(C)C[C@H]2OCCCC[C@H](C)Oc3ccc(NC(=O)NC(C)C)cc3C(=O)N([C@H](C)CO)C[C@H]2C)cc1 | -7 | 0 | 3.6 | -1.4
O=C(NCc1ccc(F)cc1)Nc1nnc([C@H]2C[C@H](O)[C@@H](CO)O2)s1 | 6 | 2 | -0.1 | 2.4
CNC[C@@H]1Oc2cc(C#CCC3CCCC3)ccc2S(=O)(=O)N([C@@H](C)CO)C[C@@H]1C | 4 | -6 | 18 | 5.5
CCC(=O)Nc1ccc2c(c1)C(=O)N(C)C[C@@H](OC)[C@H](C)CN(C(=O)CC1CC1)[C@H](C)CO2 | 4 | 1 | -1.1 | -2.4
Cc1ccc(CN2CC(N3CCN(Cc4cccc(C)c4)CC3)CS2(=O)=O)cc1 (configuration not stated) | -5 | -1 | 1.5 | 2.7
CC(C)NC(=O)N1[C@H](CO)[C@H](c2ccccc2)C12CN(C(=O)Cc1ccccc1)C2 | 2 | 0 | -1.7 | -23
CCNC(=O)C1(C)CCN(C(=O)c2c(F)cccc2F)C1 (configuration not stated) | 3 | 10 | -1.6 | -1.7

Laid out differently: results already given.
Values run as follows: Ecoli rRNA inh | Ecoli rRNA inh OD600 | Ecoli rRNA inh RFP | MLL AF4-AF9 inh
COc1ccccc1S(=O)(=O)N[C@@H]1C=C[C@@H](CC(=O)N2CCOCC2)O[C@H]1CO
 : -1 | 4 | -1.0 | -4.8
C[C@@H]1CN([C@@H](C)CO)S(=O)(=O)c2ccc(C#CC3CCCC3)cc2O[C@H]1CN(C)S(C)(=O)=O
 : -11 | -45 | 14 | 5.4
O=C(Nc1ccccc1)N1CC(=O)N2[C@@H](CO)[C@H](c3ccc(C#CC4CCCC4)cc3)[C@@H]2C1
 : -15 | -40 | 21 | 7.6
CCC(=O)N(C)C[C@@H]1Oc2ncc(C#C[C@@H](C)O)cc2C(=O)N([C@@H](C)CO)C[C@@H]1C
 : 5 | 6 | -5.6 | -4.7
CS(=O)(=O)N1Cc2cc(C(=O)NCC3CC3)nc(-c3cccc(-c4cccnc4)c3)c2[C@H]1CCO
 : 17 | 18 | 6.6 | 2.6
COc1ccc(S(=O)(=O)N(C)C[C@H]2OCCCC[C@H](C)Oc3ccc(NC(=O)NC(C)C)cc3C(=O)N([C@H](C)CO)C[C@H]2C)cc1
 : -7 | 0 | 3.6 | -1.4
O=C(NCc1ccc(F)cc1)Nc1nnc([C@H]2C[C@H](O)[C@@H](CO)O2)s1
 : 6 | 2 | -0.1 | 2.4
CNC[C@@H]1Oc2cc(C#CCC3CCCC3)ccc2S(=O)(=O)N([C@@H](C)CO)C[C@@H]1C
 : 4 | -6 | 18 | 5.5
CCC(=O)Nc1ccc2c(c1)C(=O)N(C)C[C@@H](OC)[C@H](C)CN(C(=O)CC1CC1)[C@H](C)CO2
 : 4 | 1 | -1.1 | -2.4
Cc1ccc(CN2CC(N3CCN(Cc4cccc(C)c4)CC3)CS2(=O)=O)cc1 (configuration not stated)
 : -5 | -1 | 1.5 | 2.7
CC(C)NC(=O)N1[C@H](CO)[C@H](c2ccccc2)C12CN(C(=O)Cc1ccccc1)C2
 : 2 | 0 | -1.7 | -23

Source: PubChem BioAssay

This is a subset (hit frequency here may not be typical).
